# Screening data: PubChem BioAssay, several laboratories
# SKKanGAS inh: SKKanGAS growth inhibition | actives 1.3% (n = 300,000) | S. pyogenes SKKanGAS, kanamycin growth, BacTiter-Glo, 6 h | inhibition, % at 7.5 µM;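 active means mean replicate score, as percent of positive control median, at least 50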;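 further: strain carries kanamycin resistance gene driven by streptokinase promoter and grows in 40 µg/ml kanamycin; loss of luminescence reflects streptokinase promoter inhibition or plain growth inhibition; 0% = median of DMSO wells and 100% = positive control at its reference dose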
# AI-2 QS modul: modulates the Vibrio harveyi AI-2 quorum sensing system | Vibrio harveyi JMH597 AI-2 luminescence/OD600 ratio, 9 h; active compounds read low; strain lacks LuxN and CqsS sensors; 0 = neutral-control median | activity change, % at 7.5 µM | actives 0.4% (n = 300,000) | AID 2094; in the data active means activity change below about -75%, passing the limit was not always enough;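 further: luminescence divided by OD600 gain over 9 h not by final OD600 alone; inactives centre near 13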
# HSF1 activator: increases HSF-1 driven luciferase reporter signal; activation, % at 9 µM; NIH3T3-HGL HSF-1 luciferase reporter, MG132, 8 h; 100% = twice DMSO control signal; actives 1.7% (n = 300,000);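 active means mean replicate activation of at least 50% with a set share of replicates each reaching 50%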;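 further: 0% = median of the neutral control wells and 100% = twice that signal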
# HSF1 inhib: HSF1 inhibition; NIH3T3-HGL HSE-luciferase, MG132-induced, luminescence 8 h; active compounds read low; activity change, negative = inhibition, % at 7.5 µM (by protocol); actives 0.77% (n = 300,000); AID 2098;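 active means more than half of replicate wells show activity change below -50%, luminescence cut by over half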;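 further: luciferase reports HSF-1 transcriptional activity via heat shock element; 0% = median of DMSO wells and -100% = zero luminescence signal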
# IEC-6 cytotox: IEC-6 cytotoxicity, counter-screen for KLF5 inhibitors | luminescence viability | actives 0.78% (n = 290,000) | inhibition, % at 5 µM; in the data active means inhibition above about 22%;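 further: 0% = plate median of test compound wells and 100% = cytotoxic reference compound wells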
# * = called active by the depositor; nt = not tested or not shown.
item	smiles	SKKanGAS inh	AI-2 QS modul	HSF1 activator	HSF1 inhib	IEC-6 cytotox
1	COc1cc2c(c(OC)c1OC)-c1ccc(OC)c(=O)cc1[C@@H](NC(C)=O)CC2	-3	17	-25	-9	96*
2	COc1ccc(-c2nc(-c3ccncc3)no2)c(OC)c1	-8	nt	48	25	3
3	C[C@H](CS)C(=O)N1CCC[C@H]1C(=O)O	1	16	-1	1	-3
4	Cc1cc(NS(=O)(=O)c2ccc(N)cc2)no1	-5	-41	-4	-6	nt
5	CN1CCc2cccc3c2C1Cc1ccc(O)c(O)c1-3 (stereo unspecified)	3	1	21	32	0
6	CCOc1ccc(OCc2ccc(C(=O)OCc3ccccn3)o2)cc1	2	-23	-15	-6	-1
7	COc1cc2c(c(OC)c1OC)-c1ccc(OC)c(=O)cc1C(NC(C)=O)CC2 (stereo unspecified)	-6	14	-32	-18	94*
8	CN(C)CC/C=C1\c2ccccc2COc2ccccc21	2	20	7	2	-8
9	CO[C@H]1C=CO[C@@]2(C)Oc3c(C)c(O)c4c(O)c(c(C=NN5CCN(C)CC5)c(O)c4c3C2=O)NC(=O)C(C)=CC=C[C@H](C)[C@H](O)[C@@H](C)[C@@H](O)[C@@H](C)[C@H](OC(C)=O)[C@@H]1C	106*	-119*	10	6	-2
10	CN(C)CCCN1c2ccccc2CCc2ccccc21	0	20	-19	-1	-1
11	Clc1ccc(-c2cn3ccccc3n2)cc1	-1	30	39	39	2

# Down the list, as entered above.
# Entries 1–11 in HSF1 activator: -25, 48, -1, -4, 21, -15, -32, 7, 10, -19, 39
# Entries 1–11 in AI-2 QS modul: 17, nt, 16, -41, 1, -23, 14, 20, -119*, 20, 30
# Entries 1–11 in SKKanGAS inh: -3, -8, 1, -5, 3, 2, -6, 2, 106*, 0, -1

# Whole records as entered above. Order of screens: SKKanGAS inh, AI-2 QS modul, HSF1 activator, HSF1 inhib, IEC-6 cytotox
# `COc1cc2c(c(OC)c1OC)-c1ccc(OC)c(=O)cc1C(NC(C)=O)CC2` (stereo unspecified) as listed: -6, 14, -32, -18, 94*
# `CCOc1ccc(OCc2ccc(C(=O)OCc3ccccn3)o2)cc1` as listed: 2, -23, -15, -6, -1
# `COc1cc2c(c(OC)c1OC)-c1ccc(OC)c(=O)cc1[C@@H](NC(C)=O)CC2` as listed: -3, 17, -25, -9, 96*
# `C[C@H](CS)C(=O)N1CCC[C@H]1C(=O)O` as listed: 1, 16, -1, 1, -3

# Not all compounds are listed; the hit share may differ from the screen's.
